Sfp inh: Sfp phosphopantetheinyl transferase inhibition. Potency, µM, inactives show max response, negative = inhibition, usual class: inhibitors. 3.5% of 310,000 active. Biochemical Sfp PPTase activity, qHTS. Q9F4F7; active = well fitted inhibition curve with a large enough effect; inconclusive = small, poorly fitted or top-dose-only effect, or another doubt; inactive = no such curve, though single readings can be large or run the other way;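 also: the enzyme is Sfp with the accession as filed and its product quenches rhodamine fluorescence; potency is read from the fitted curve at half-maximal effect; 0% = enzyme reaction without inhibitor and -100% = no enzyme wells; top concentration of the series not given in the record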
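Buffer: 50 mM Hepes-Na pH 7.6, 10 mM MgCl2, 0.01% Nonidet P-40, 0.01% BSA. Enzyme 15 nM, pre-exposed to compound 15 min; substrates then added and fluorescence change tracked over 30 min.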
TRPV1 potentiator: enhances activation of the human vanilloid receptor TRPV1 | Q8NER1 | TRPV1-expressing cells, Fluo-8 calcium influx, capsaicin EC20 potentiation; host cell line not named in the record; control for the full effect not named in the record | potentiation, % at 8.33 µM | 0.02% of 320,000 active; active means potentiation above 80%; inconclusive means 30% to 80%; inactive means below 30%; also: 0% is about no effect
Target sequence (Q8NER1 whole entry, looked up): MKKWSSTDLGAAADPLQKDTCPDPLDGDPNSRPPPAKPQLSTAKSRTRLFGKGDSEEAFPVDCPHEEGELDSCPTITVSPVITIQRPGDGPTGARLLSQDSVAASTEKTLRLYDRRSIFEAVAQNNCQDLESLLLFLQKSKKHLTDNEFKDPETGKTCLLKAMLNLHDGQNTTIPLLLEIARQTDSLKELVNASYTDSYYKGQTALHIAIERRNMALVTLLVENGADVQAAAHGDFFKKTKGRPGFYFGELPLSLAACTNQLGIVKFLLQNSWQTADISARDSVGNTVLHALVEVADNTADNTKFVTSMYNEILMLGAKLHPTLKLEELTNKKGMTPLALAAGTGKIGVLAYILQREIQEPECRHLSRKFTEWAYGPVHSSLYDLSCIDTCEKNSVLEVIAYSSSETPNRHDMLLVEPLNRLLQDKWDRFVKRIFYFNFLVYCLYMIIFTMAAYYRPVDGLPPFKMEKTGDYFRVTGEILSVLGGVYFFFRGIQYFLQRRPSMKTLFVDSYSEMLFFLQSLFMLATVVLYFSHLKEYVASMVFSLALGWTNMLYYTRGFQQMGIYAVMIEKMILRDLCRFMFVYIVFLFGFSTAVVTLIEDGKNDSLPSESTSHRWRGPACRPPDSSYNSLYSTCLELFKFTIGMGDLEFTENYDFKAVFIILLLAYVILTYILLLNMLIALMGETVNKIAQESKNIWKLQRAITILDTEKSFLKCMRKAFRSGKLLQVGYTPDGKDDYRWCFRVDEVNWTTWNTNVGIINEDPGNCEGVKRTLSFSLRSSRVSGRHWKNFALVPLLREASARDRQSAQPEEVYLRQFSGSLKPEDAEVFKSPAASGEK
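Fluo-8 calcium influx in TRPV1-expressing cells, kinetic read (ex 480/em 520 nm). Compound added and read 3 min for agonist activity, followed by capsaicin at EC20 final and 2 min further read for enhancement.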
TRPML1 inh: human mucolipin-1 channel inhibition; 0.02% of 390,000 active; TRPML1-inducible cells, Ca2+ dye fluorescence, FDSS; active compounds read low; inhibition of EC80 agonist-evoked calcium signal; activity change, negative = inhibition, % (concentration not given with the values); Q9GZU1; in the data active means activity change below about -50%; inconclusive means about -30% to -50%; inactive means above about -30%;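 also: stimulus is agonist 54-4 at its EC80 concentration; % is scaled to controls: 0 for no effect and ±100 for the full control effect; the text of the record puts the active cut at -80%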
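TRPML1-DL cells, Tet-induced overnight (~16 h, 37 °C) at 1,500 cells/well, were loaded with Ca8 no-wash dye plus quencher for 45-90 min at room temperature. Compounds were pinned during FDSS kinetic reading; agonist 54-4 at EC80 (4 uM final) then added.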
PINK1 expr mod: changes PINK1 expression | PINK1 immunofluorescence, high-content cytometry, 24 h | Potency, µM (series often up to 76.6 µM), without a hit: top-dose activation (PINK1 increase), usual class: activators | 0.2% of 410,000 active; active = well fitted activation curve with a large enough effect; inconclusive = small, poorly fitted or top-dose-only effect; inactive = flat fitted curve, though single readings scatter; cell line not stated here;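 also: potency is read from the fitted curve at half-maximal effect; % of control where 0% means no effect; nearly all actives have a fitted effect of over 65% in size; a mitochondrial uncoupler was the plate control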
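Readout is PINK1 immunofluorescence, quantified alongside mitochondrial, cell and nuclear markers by laser-scanning microplate cytometry. Cells from a stable line were exposed to compound titrations (5 concentrations) for 24 hours, with CCCP controls.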
Menin MLL FP FL: menin-MLL binding inhibition, fluorescein peptide | Fluorescence polarization, fluorescein-MLL peptide displacement from menin | FP activity change, % at 61.4 µM | 290,000 tested, under 10 active; inconclusive = falling polarisation curve, or a change in total fluorescence; inactive = total fluorescence flat and polarisation flat or rising; no compound was filed as active; the % refers to the polarisation; negative = inhibition;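 also: % of control where 0% means no effect; inhibitors lower the polarisation; unlabelled MLL peptide was the positive control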
ClpP mod: qHTS Assay for Activators of ClpP; ATP-dependent Clp protease proteolytic subunit (Bacillus subtilis (strain 168)), P80244; purified B. subtilis ClpP, FRET peptide cleavage, 20 min; Potency, µM (titrated, usually from 57.5 µM), for inactives: top-dose activity change, negative = active; 1.9% of 340,000 active; active = well fitted falling curve with a large enough effect; inconclusive = small, poorly fitted or top-dose-only effect; inactive = no such curve, though single readings can be large or run the other way; also: potency is read from the fitted curve at half-maximal effect; the source files actives as falling curves though it sought activators and does not explain the sign; nearly all actives have a fitted effect of over 65% in size; many hits overshoot -100%
Target sequence (P80244 whole entry, looked up): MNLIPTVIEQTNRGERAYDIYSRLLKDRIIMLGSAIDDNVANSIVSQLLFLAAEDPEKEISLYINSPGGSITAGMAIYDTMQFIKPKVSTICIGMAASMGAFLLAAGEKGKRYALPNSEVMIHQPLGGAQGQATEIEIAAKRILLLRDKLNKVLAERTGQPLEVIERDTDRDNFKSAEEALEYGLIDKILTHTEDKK
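Buffer: 100 mM Tris/HCl pH8, 100 mM KCl, 0.05% low protease BSA, 2.5% glycerol, 0.01% Tween-20. ClpP 10 microg/mL final; 20 min RT; delta FRET normalized to ADEP and DMSO controls.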
TRPML1 ag: agonists of human TRPML1 channel. 0.12% of 410,000 active. activation, % (test concentration not listed). TRPML1-expressing cells, Ca2+ dye fluorescence, FDSS; host cell line not named in the record; reference of the full effect not given here. Q9GZU1; in the data active = activation above about 50%; inconclusive = about 30% to 50%; inactive = below about 30%; also: 0% is about no effect; the text of the record puts the active cut at 80%
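In this qHTS format, compounds were pin-transferred onto Ca8-dye-loaded TRPML1-DL cells induced with Tet overnight, and intracellular Ca2+ fluorescence was recorded kinetically for 110 s after a 10 s baseline. A subsequent 4uM final 54-4 (EC80) addition followed by a second 110 s read served as the antagonist phase.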
Active calls of the source: *; ? = inconclusive; · = no result given; [ ] = another dose, or the depositor's remark.

Each structure is followed by: TRPML1 inh	TRPV1 potentiator	ClpP mod	Sfp inh	Menin MLL FP FL	TRPML1 ag	PINK1 expr mod
COc1cc(C2/C(=C(\O)c3ccc4c(c3)OCCO4)C(=O)C(=O)N2CCN2CCOCC2)cc(OC)c1OC (configuration not stated)
  3	6	-1.1%	-5%	-4.7	0.6	0.7%
Cn1c(-c2ccccc2)cc2onc(-c3ccccc3)c2c1=O
  -9	10	-13%	·	·	2.0	0.5%
CC(C)C[C@@H]1NC(=O)[C@H](C(C)C)NC(=O)c2cc([N+](=O)[O-])cc(I)c2OCC[C@@H](C(N)=O)NC1=O
  -26	8	-4.0%	6%	-0.1	0.5	1.4%
CNc1ccnc(-c2ccccc2C)n1
  ·	·	·	18%	3.2	·	-0.6%
CC(C)C[C@H]1CN(CCCC[C@H]2CNC(=O)C(=O)N2CCc2ccc(O)cc2)C(=O)C(=O)N1Cc1ccccc1
  ·	·	-1.5%	·	·	-0.7	0.2%
CC(Oc1ccccc1)C(=O)N1CCN(c2ccc(N3CCCCC3)nn2)CC1 (configuration not stated)
  16	-26	?	·	·	0.6	-2.2%
O=C(O)c1ccccc1C(=O)Nc1ccc(Oc2cccc3ccccc23)cc1
  -5	11	·	2%	-1.8	1.8	-0.5%
CCCCc1ccc(NC(=S)N2CCCC(CO)C2)cc1 (configuration not stated)
  -6	-4	-3.5%	24%	5.5	1.2	-3.5%
COc1cc(NC(=O)CN2C(=O)NC(C)(CCC(C)C)C2=O)cc(OC)c1 (configuration not stated)
  -4	0	-2.4%	10%	1.0	1.6	-2.6%
CCc1nc2ccc(C(=O)N3CCN(C(=O)c4ccco4)CC3)cn2c1N(CCC(C)C)CCN(C)C
  ·	·	-9.9%	·	·	0.8	0.5%
O=C(C1CCC(CNS(=O)(=O)c2cccc3nsnc23)CC1)N1CCN(c2ccccn2)CC1 (configuration not stated)
  19	-15	-8.2%	9%	-2.1	6.0	-0.7%
CCN(CC)c1ccc2cc(-c3nc4ccccc4[nH]3)c(=O)oc2c1
  ?	26	-2.4%	9%	?	97*	?
CCOc1ccc(NC(=O)CN2C(=O)CSC2=O)cc1
  -14	24	·	17%	-6.4	-0.2	2.4%
CSc1nc2ccc(NS(=O)(=O)c3c(Cl)cccc3Cl)cc2s1
  -4	23	-2.2%	?	2.9	1.3	2.5%
COc1ccc(NC(=O)C2(C)CCN2Cc2ccc(OC)c3ccccc23)cc1OC (configuration not stated)
  ·	·	-15%	·	·	-0.8	1.1%
O=C(Nc1ccc(F)cc1)Nc1ccccc1N1CCCCC1
  -5	-5	-0.8%	-3%	3.1	-0.8	8.9%
CC12CC3(C)CC(C)(C1)CC(C(=O)NCc1cccnc1)(C2)C3
  6	2	0.8%	13%	1.4	0.4	1.9%
CCOC(=O)[C@H]1[C@H]2COc3ccc(C)cc3[C@@H]2N2C(=O)CN(Cc3ccc(OC)cc3)C(=O)[C@@]12C
  59	-2	0.3%	·	·	0.4	0.6%
COc1ccc(CCN(C)C2CC(=O)N(c3ccccc3)C2=O)cc1OC (configuration not stated)
  -18	9	0.0%	-5%	5.0	-0.7	0.3%
CC1CCCC(NC(=O)C2CC(=O)N(Cc3ccccc3)C2)C1C (configuration not stated)
  1	8	2.0%	-3%	·	-0.1	1.6%
O=C(O)CCSc1nnc(COc2cccc3ccccc23)n1-c1cccc(Cl)c1
  -5	3	·	8%	0.5	-0.7	-0.7%
O=c1[nH]c(C(F)(F)F)nc2c1nc1n2CCC1
  -13	·	-2.3%	·	·	-0.3	0.0%
COc1cccc(-c2nnc(SCC(=O)N(C)c3ccccc3)o2)c1
  10	·	1.4%	·	·	0.7	1.1%
CCOc1ccc(CCNC(=O)COC(=O)c2cccnc2OCC)cc1OCC
  -3	10	-0.6%	13%	0.1	0.8	-3.4%[38.3 µM]
Cc1ccc(/C=C(\C#N)C(=O)NCCN2CCOCC2)cc1
  5	1	·	-10%	11	-0.3	3.3%
COC(=O)C1=C(O)/C(=C/c2cccc(OC)c2O)N=C1C
  25	·	1.8%	15%	17	0.8	-0.1%
CSc1nnc(C)c(=O)n1COC(=O)/C=C/c1ccccc1
  -3	10	·	?	-1.6	-0.7	0.5%
COC(=O)CSc1nc(N)c2c3c(sc2n1)C(c1ccccc1)SC(c1ccccc1)C3 (configuration not stated)
  13	?	-0.8%	40µM*	?	9.0	4.0%
O=C(CCCOc1ccccc1)Nc1ccc(S(=O)(=O)N2CCOCC2)cc1
  16	-10	-0.5%	10%	1.7	0.7	-1.5%
COc1cc(OC)c2c(-c3cccc(-c4ccc(OC)c(F)c4)c3)cc(=O)oc2c1
  -8	·	?	-3%	1.1	-0.7	4.9%
Cc1ccc(N2C(=O)CSC23C(=O)N(Cc2ccccc2F)c2ccccc23)cc1F (configuration not stated)
  -9	·	-0.6%	·	·	1.9	-0.6%
Cc1nc2ncnn2c(C)c1CCC(=O)N1CCN(C(=O)c2ccco2)CC1
  -14	16	0.9%	12%	5.0	-0.8	-0.9%
COC(=O)c1c(NC(=O)CN2C(=O)C(=O)N(CC(C)C)C2=O)sc(C)c1C
  28	2	-6.5%	-2%	·	1.4	5.4%
CC1CCc2c(sc3nc(CN4CCOCC4)nc(N4CCc5ccccc5C4)c23)C1 (configuration not stated)
  34	-8	-2.9%	-9%	12	0.7	2.2%
Cc1ccc(C2(C)NC(=O)N(CC(=O)NCc3cccs3)C2=O)cc1 (configuration not stated)
  2	-2	-2.4%	-8%	5.8	0.9	0.9%
CCN(CC)S(=O)(=O)c1ccc(/C=C/C(=O)O)cc1
  ?	-3	·	17%	-0.1	1.3	-2.6%
Oc1ccc(N2CCN(c3ncnc4sc(-c5ccccc5)cc34)CC2)cc1
  36	8	·	20µM*	19	4.6	0.2%
O=C(Cc1c(Cl)cccc1Cl)NC1=NCCS1
  ·	0	·	-10%	4.9	·	·
O=C(CN1C(=O)NC2(CCCC2)C1=O)Nc1ccc(Cl)cc1C(F)(F)F
  -7	2	-2.5%	11%	-1.1	0.5	-1.5%
O=C(O)c1ccccc1CSc1nnnn1-c1ccccc1
  10	-1	·	4%	0.0	0.3	0.5%
Cc1cc(NC(=O)CSc2nccn2-c2ccc([N+](=O)[O-])cc2)no1
  -6	-8	-0.7%	2%	-0.1	-1.0	-0.2%
COc1ccc(NCc2nnc(SCC(=O)NCc3ccco3)n2-c2ccccc2OC)cc1
  -8	-1	1.2%	22%	4.2	2.9	0.2%
CCOc1ccc(C(=O)NCC(c2ccc3c(c2)OCO3)N2CCN(C)CC2)cc1 (configuration not stated)
  -20	·	-5.1%	·	·	-0.5	-2.0%
Cc1ccccc1Cn1c(C)c(C(=O)NCc2cccc(Cl)c2)sc1=O
  ·	·	-4.4%	·	·	2.7	1.1%
C[C@H](CO)N1C[C@H](C)[C@@H](CN(C)Cc2ccc(C(=O)O)cc2)Oc2ccc(NS(=O)(=O)c3cn(C)cn3)cc2C1=O
  -2	·	-2.7%	·	·	-0.5	-0.2%
CCCCn1c(SCC(=O)NCc2ccco2)nc2cc(S(N)(=O)=O)ccc21
  8	9	-2.7%	?	6.5	-0.4	-0.4%
NC(=O)Nc1ccc(C(=O)N2CCN(S(=O)(=O)Cc3ccccc3)CC2)cc1
  -9	6	0.3%	·	·	0.5	1.9%
COc1ccc(N2C(c3ccsc3)=Cc3cc4c(cc3C2c2c[nH]c3ccccc23)OCO4)cc1 (configuration not stated)
  ·	·	14%	·	·	-0.5	3.9%
CCOc1ccc(C2=NNC(c3cccs3)=Nc3ccc(OCC)cc32)cc1
  ·	6	·	14%	3.2	·	·
CC(C)C(C)NC(=O)COc1ccc(S(=O)(=O)N2CCOCC2)cc1Cl (configuration not stated)
  18	-4	-2.0%	1%	1.1	-0.4	1.9%
COC(=O)[C@@]1(Cc2ccc(OC)cc2)[C@H]2c3cc(C(=O)N4CCCC4)n(CCc4c[nH]c5ccccc45)c3C[C@H]2CN1C(=O)c1ccccc1
  ·	·	-3.5%	8%	5.1	0.3	-0.3%
C/C(CC(=O)Nc1ccc(N(C)C)cc1)=N\NC(=O)c1cnccn1
  -27	1	-2.2%	56µM*	4.6	0.1	1.1%
COc1ccc(CCC(=O)Nc2nc(C)c(C(=O)N(C)C)s2)cc1
  -3	12	-3.0%	-21%	6.1	-0.4	-0.4%
O=C(C1CC1)N1CCN(c2nc3c(Cl)cccc3s2)CC1
  17	·	-2.0%	·	·	3.1	0.2%
Cc1ccc(CNC(C)c2ccccc2)cc1 (configuration not stated)
  20	-9	-26%	11%	-3.4	0.9	-0.9%
O=C(NNc1cccc(Cl)n1)Nc1ccccc1F
  -16	-4	·	-6%	-2.6	-1.5	1.1%
O=S(=O)(NCCc1csc(-c2cccnc2)n1)c1cccs1
  -5	10	-22%	27%	4.3	-0.1	-0.6%
CC(C)CN(C(=O)CSc1nc(-c2ccccc2)cn1N)c1c(N)n(Cc2ccccc2)c(=O)[nH]c1=O
  -9	1	-21%	·	·	0.3	4.2%
Cc1nnc(NC(=O)CSc2ncnc3scc(-c4ccccc4)c23)s1
  12	·	-5.1%	-22%	5.4	-0.8	78%[38.3 µM]
COc1cccc(C(=O)NNC(=O)CCc2ccccc2)c1
  9	-3	·	4%	-5.1	-0.3	0.1%
O=C(Nc1ccc(N2CCCCC2)cc1)C(Cl)c1ccccc1 (configuration not stated)
  -2	?	·	?	10	-0.7	3.9%
C#CCCCCCCC#CCN(C)C
  4	9	32µM*	-6%	2.1	0.3	-1.8%
COc1ccccc1NC(=O)CSc1nc2c(oc3ccccc32)c(=O)n1-c1ccc(C)cc1
  -11	·	-20%	·	·	-0.7	0.8%

Gathered by group: those above with a nitro group on carbon (two)
Each structure is followed by: TRPML1 inh	TRPV1 potentiator	ClpP mod	Sfp inh	Menin MLL FP FL	TRPML1 ag	PINK1 expr mod
CC(C)C[C@@H]1NC(=O)[C@H](C(C)C)NC(=O)c2cc([N+](=O)[O-])cc(I)c2OCC[C@@H](C(N)=O)NC1=O
  -26	8	-4.0%	6%	-0.1	0.5	1.4%
Cc1cc(NC(=O)CSc2nccn2-c2ccc([N+](=O)[O-])cc2)no1
  -6	-8	-0.7%	2%	-0.1	-1.0	-0.2%

Bioassay records (PubChem)
